RGS16-Gao HTS = regulators of human RGS16-Galphao interaction | O15492+P09471 | bead-based flow cytometry RGS16-Galphao binding, fluorescence; actives lie on both sides | binding response (% of control), % at 10 µM | 220,000 compounds, 0.38% hits | AID 1441;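 active means below 25% or above 175%, edge rows of some plates excepted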;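 further: Galphao activated by GDP with aluminum fluoride before binding; 100% = wells without compound and 0% = beads without RGS; some results beyond the cut were filed as inactive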
GALR2 agonist = activates the human galanin receptor 2. GALR2-expressing cells, agonist activation read-out. activation, %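 (tested at 5 µM)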. 140,000 compounds, 0.48% hits. AID 803;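 active means above mean plus 3 SD of all compounds, about 5% in these data, not always enough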;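 further: 0% = vehicle buffer wells and 100% = reference agonist at full effect; tested in CHO reporter cells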
PKD1 inh = PKD1 (human) kinase inhibition; Q15139; PKD1 kinase fluorescence polarization assay; 200,000 compounds, 0.056% hits; inhibition, %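 (about 10 µM by stock and volumes)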; AID 797;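 active means inhibition of 50% or more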;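 further: controls were vehicle for no effect and a reference inhibitor for full effect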
Target sequence (Q15139 whole entry, looked up): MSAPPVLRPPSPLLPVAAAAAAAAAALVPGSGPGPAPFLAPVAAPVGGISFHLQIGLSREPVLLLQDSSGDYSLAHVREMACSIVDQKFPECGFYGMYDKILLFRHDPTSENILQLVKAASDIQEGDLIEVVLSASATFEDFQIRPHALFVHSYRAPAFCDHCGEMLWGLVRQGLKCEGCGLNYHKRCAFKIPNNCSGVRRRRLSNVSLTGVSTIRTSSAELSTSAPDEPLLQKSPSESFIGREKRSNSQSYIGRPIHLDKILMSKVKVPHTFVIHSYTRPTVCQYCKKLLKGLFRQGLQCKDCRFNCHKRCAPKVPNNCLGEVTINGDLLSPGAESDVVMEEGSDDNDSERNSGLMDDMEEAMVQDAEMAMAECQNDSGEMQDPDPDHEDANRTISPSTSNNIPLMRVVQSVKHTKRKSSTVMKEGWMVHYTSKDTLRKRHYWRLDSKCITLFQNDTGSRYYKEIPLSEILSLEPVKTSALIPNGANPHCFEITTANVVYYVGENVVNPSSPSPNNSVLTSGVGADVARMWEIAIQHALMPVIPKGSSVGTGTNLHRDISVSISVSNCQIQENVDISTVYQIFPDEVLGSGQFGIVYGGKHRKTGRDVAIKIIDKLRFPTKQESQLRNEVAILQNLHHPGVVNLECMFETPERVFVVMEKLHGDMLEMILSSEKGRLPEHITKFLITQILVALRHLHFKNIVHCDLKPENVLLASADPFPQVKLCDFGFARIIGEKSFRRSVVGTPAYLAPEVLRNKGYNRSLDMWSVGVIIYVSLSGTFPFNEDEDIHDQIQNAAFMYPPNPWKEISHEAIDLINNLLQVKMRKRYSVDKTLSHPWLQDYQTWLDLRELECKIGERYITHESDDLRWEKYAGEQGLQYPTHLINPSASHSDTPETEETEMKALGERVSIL
HSV augment = HSV replication enhancement; 220,000 compounds, 0.005% hits; maximum fold increase; HSV replication augmentation in cells, fold increase; AID 1956;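 active means peak rise of 1.5-fold or more in the series; inconclusive means self-fluorescent or not available for retest; tested in PC3 cells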;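 further: first round at 10 µM; read as green reporter fluorescence; hits show the peak of a series up to 25 µM; 1 = signal of infected wells without compound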
Insulin prom inh = TRM-6 insulin promoter activity inhibition | TRM-6 cells (human fetal islet line), insulin promoter-eGFP reporter, imaging; reporter expression induced with tamoxifen | 130,000 compounds, 0.9% hits | inhibition, % at 2 µM;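 active means inhibition above the mean plus 3 SD, with well images judged a real hit on visual review, cut at about 60% in these data, passing the limit was not always enough; inconclusive means inhibition over the cutoff but images rejected on review; inactive means inhibition not above the cutoff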
Insulin prom inh cell count = further read-out of Insulin prom inh, marked with its call; normalized cell count, %; measured here: cell count, toxicity; reference of the scale not given here;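 cells exposed to compound for 48 h; stained nuclei by imaging scaled within each plate; lower means fewer cells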
HSV augment primary fold = recorded beside HSV augment, whose call it bears; fold increase; compound at 10 µM; measured here: primary screen fold increase 10 uM; tested in PC3 cells;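 GFP signal in the first replicate; 1 = infected wells without compound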
Active calls of the source: *; i = inactive; u = inconclusive; x = no result given.

Abbreviations – A = RGS16-Gao HTS; B = GALR2 agonist; C = PKD1 inh; D = HSV augment; E = HSV augment primary fold; F = Insulin prom inh; G = Insulin prom inh cell count
CC(=O)C1C(c2ccc(O)cc2)NC(=O)NC1(O)C(F)(F)F (centres undefined)
  A = 97	B = x	C = x	D = i	E = 0.77	F = x	G = x
Cc1ncc(S(=O)(=O)c2ccccc2)c(-c2ccccc2Cl)n1
  A = 109	B = -3.4	C = -6	D = i	E = 0.9	F = 23	G = 81
COc1cc(C(N)=O)ccc1OCc1ccccc1
  A = 100	B = -0.4	C = 3	D = i	E = 1	F = 18	G = 68
CC(=O)NC(Cc1ccc(C(C)C)cc1)C(=O)NC1CCN(C(=O)c2cccc(C)c2)CC1 (centres undefined)
  A = 105	B = x	C = -5	D = i	E = 0.91	F = 25	G = 62
CC(NC(=O)c1cc(-c2ccccc2)nc2ccccc12)C1CCCO1 (centres undefined)
  A = 105	B = x	C = -6	D = i	E = 0.52	F = x	G = x
CCOC(=O)c1cnc2c(OC)cccc2c1N1CCN(c2ccc(OC)cc2)CC1
  A = 100	B = -2.1	C = -5	D = u	E = x	F = -108	G = 127
Cc1nc2ccc(NC(=S)NCc3ccccc3)cc2nc1C
  A = 97	B = x	C = -6	D = i	E = 0.87	F = x	G = x
Cc1cc(NC(=O)CN(C)S(=O)(=O)c2cccc(Cl)c2)no1
  A = 91	B = x	C = -5	D = i	E = 0.86	F = x	G = x
CC(C)Cc1c2c([nH]c(=S)c1C#N)CCCC2
  A = 93	B = 1.2	C = -12	D = i	E = 0.96	F = 21	G = 111
Cc1ccc(NC(=O)COC(=O)/C=C/c2cccc(Cl)c2)cc1S(=O)(=O)N1CCOCC1
  A = 103	B = 0.9	C = 5	D = i	E = 1	F = x	G = x
N#Cc1c(N)nc(N2CCCC2)c(C#N)c1-c1ccc(Cl)cc1
  A = 98	B = -2.3	C = -6	D = i	E = 0.68	F = x	G = x
CCCCn1nc(C(=O)N2CCc3ccccc32)c2ccccc2c1=O
  A = 61	B = 0.3	C = -1	D = i	E = 0.79	F = -48	G = 173
Cc1cc(-c2c(C)[nH]n(-c3ccc(Cl)cc3)c2=O)n(-c2ccc(Cl)cc2)n1
  A = 94	B = -1.5	C = -7	D = i	E = 0.82	F = -50	G = 127
CCOC(=O)c1cn2nc(Oc3ccc(NC(C)=O)cc3)ccc2n1
  A = 110	B = x	C = x	D = i	E = 1.1	F = x	G = x
COCCCNc1nnc(Cc2ccccc2)c2ccccc12
  A = 81	B = x	C = -4	D = i	E = 0.98	F = x	G = x
Clc1ccccc1Cc1noc(CN2CCN(Cc3ccccn3)CC2)n1
  A = 106	B = x	C = -4	D = i	E = 1	F = x	G = x
O=S(=O)(CCc1nnc(-c2ccc(Br)cc2)o1)c1ccc(Cl)cc1
  A = 95	B = -1.1	C = -3	D = i	E = 0.8	F = 22	G = 106
COc1ccc(C(=O)N2CCN(c3ccccn3)CC2)cc1[N+](=O)[O-]
  A = 98	B = x	C = -14	D = i	E = 1.2	F = x	G = x
COc1ccc(C(=O)NC(=S)Nc2ccc(Cl)c(C(=O)O)c2)cc1
  A = 102	B = x	C = -1	D = i	E = 1	F = 7	G = 73
CCOc1ccccc1C(=O)NCc1ccco1
  A = 105	B = -0.4	C = -10	D = i	E = 1.1	F = x	G = x
CCOc1cc2[nH]c(=O)n(Cc3ccc(C(=O)NCCCN4CCCC4=O)cc3)c(=O)c2cc1OCC
  A = 98	B = x	C = -1	D = i	E = 0.79	F = x	G = x
COC(=O)c1c(NC(=O)c2ccccc2)sc(Cc2ccccc2)c1C
  A = 107	B = 0.1	C = -16	D = i	E = 0.96	F = x	G = x
CCOC(=O)Cc1csc(SCC(=O)NC2CCCCC2)n1
  A = 106	B = -0.2	C = -10	D = i	E = 0.91	F = -21	G = 116
CC1(C)Cc2nc3sc4c(SCC(=O)O)ncnc4c3cc2CO1
  A = 88	B = x	C = x	D = i	E = 0.94	F = x	G = x
O=C(N/N=C/c1cccc(OCc2ccccc2)c1)c1cccs1
  A = 107	B = -0.7	C = -7	D = i	E = 0.83	F = 0	G = 150
O=C(Nc1cccnc1)c1ccc(S(=O)(=O)N2CCCCCC2)cc1
  A = 94	B = -2.9	C = -5	D = i	E = 0.92	F = 23	G = 75
Clc1ccc(-c2ncc3ccccn23)cc1
  A = 110	B = x	C = 1	D = i	E = 1.1	F = -50	G = 127
Cc1ccc(C(=O)NC2CCN(C(=O)NC3CCCCC3)CC2)cc1
  A = 108	B = -2.1	C = 3	D = i	E = 0.77	F = 33	G = 150
O=C(Cc1ccc([N+](=O)[O-])cc1)N1N=C(C2CC2)CC1(O)C(F)(F)F (centres undefined)
  A = 93	B = x	C = 3	D = i	E = 1.1	F = x	G = x
COc1ccccc1-c1nnc(SCC(=O)Nc2ccc(S(N)(=O)=O)cc2)n1N
  A = 97	B = x	C = x	D = i	E = 0.97	F = x	G = x
Cc1ccc(NC(=O)CCn2c(=O)oc3ccccc32)c(C)c1
  A = 107	B = -0.4	C = 0	D = i	E = 0.98	F = 24	G = 125
CCOc1ccc(S(=O)(=O)c2c(C(=O)c3ccccc3)cnc3cc4c(cc23)OCCO4)cc1
  A = 100	B = 1.5	C = 6	D = i	E = 0.83	F = x	G = x
NS(=O)(=O)c1cccc(NC(=O)COc2ccc([N+](=O)[O-])cc2)c1
  A = 102	B = x	C = -2	D = i	E = 1	F = x	G = x
Cc1ccc(C(=O)Nc2ccc(N3CCCC3)cc2)c(C)c1
  A = 104	B = x	C = -4	D = i	E = 1.1	F = x	G = x
Oc1ccc(/C=N/NC(=S)NC2CC3CCC2C3)cc1 (centres undefined)
  A = 108	B = x	C = x	D = i	E = 0.84	F = x	G = x
O=C(Nc1nnc(C2=COCCO2)o1)c1ccc(S(=O)(=O)N2CCOCC2)cc1
  A = 102	B = x	C = -2	D = i	E = 1.1	F = -27	G = 100
O=C(Nc1ccc(F)cc1)C(c1ccccc1)N1CCN(C(=O)c2ccco2)CC1 (centres undefined)
  A = 100	B = -0.4	C = 5	D = i	E = 1.1	F = 13	G = 128
CCOC(=O)C(C)Sc1nc2c(c(=O)[nH]c(=O)n2C)n1Cc1ccc(Cl)cc1 (centres undefined)
  A = 102	B = 1.0	C = -12	D = i	E = 1	F = x	G = x
C=CCn1c(N/N=C/c2ccc(O)cc2)nc2ccccc2c1=O
  A = 95	B = x	C = 4	D = i	E = 0.73	F = x	G = x
CCCNC(=O)C1CC(c2cccc(F)c2)=NO1 (centres undefined)
  A = 101	B = x	C = x	D = i	E = 1.2	F = x	G = x
CCOC(=O)c1ccc(NC(=S)NCc2ccco2)cc1
  A = 96	B = x	C = x	D = i	E = 1	F = x	G = x
COc1cc(OC)c(C(=O)OCC(=O)NCCc2ccccc2)cc1OC
  A = 97	B = x	C = -9	D = i	E = 0.9	F = x	G = x
N#CCCn1c(SCC(=O)NCCc2ccc(F)cc2)nc2ccccc21
  A = 103	B = -0.3	C = 6	D = i	E = 0.89	F = 0	G = 40
OC(COc1ccc2ccccc2c1Br)Cn1cnc(-c2ccccc2)c1 (centres undefined)
  A = 102	B = 0.9	C = -6	D = i	E = 0.9	F = 3	G = 35
CSC1=N/C(=C\c2ccc3c(c2)OCO3)C(=O)S1
  A = 101	B = -0.6	C = -2	D = i	E = 0.93	F = -54	G = 226

Record cards, from the list above. Order of values: RGS16-Gao HTS | GALR2 agonist | PKD1 inh | HSV augment | HSV augment primary fold | Insulin prom inh | Insulin prom inh cell count
`Oc1ccc(/C=N/NC(=S)NC2CC3CCC2C3)cc1` (centres undefined) is entered as 108 | x | x | i | 0.84 | x | x
`CCOc1ccc(S(=O)(=O)c2c(C(=O)c3ccccc3)cnc3cc4c(cc23)OCCO4)cc1` is entered as 100 | 1.5 | 6 | i | 0.83 | x | x
`CCOC(=O)C(C)Sc1nc2c(c(=O)[nH]c(=O)n2C)n1Cc1ccc(Cl)cc1` (centres undefined) is entered as 102 | 1.0 | -12 | i | 1 | x | x
`COc1cc(OC)c(C(=O)OCC(=O)NCCc2ccccc2)cc1OC` is entered as 97 | x | -9 | i | 0.9 | x | x
`C=CCn1c(N/N=C/c2ccc(O)cc2)nc2ccccc2c1=O` is entered as 95 | x | 4 | i | 0.73 | x | x

Additional structures follow:
Abbreviations – A = RGS16-Gao HTS; B = GALR2 agonist; C = PKD1 inh; D = HSV augment; E = HSV augment primary fold; F = Insulin prom inh; G = Insulin prom inh cell count
CCC(=O)Nc1ccc2c(c1)nc1n2CCSC1
  A = 102	B = -0.2	C = -8	D = i	E = 0.86	F = x	G = x
OCC(O)CN(c1ccccc1)c1ccccc1 (centres undefined)
  A = 98	B = x	C = 3	D = i	E = 0.95	F = 8	G = 109
CC(=O)C1=C(C)OC2(O)c3ccccc3C(=O)C12O (centres undefined)
  A = 90	B = x	C = x	D = i	E = 1	F = x	G = x
COc1ccccc1NC(=O)CSc1nnc(-c2ccncc2)n1CC1CCCO1 (centres undefined)
  A = 100	B = -0.1	C = -6	D = i	E = 0.96	F = 8	G = 132
O=C(/C=C\c1cccs1)N1CCN(Cc2ccc3c(c2)OCO3)CC1
  A = 99	B = x	C = -9	D = i	E = 0.99	F = 29	G = 142
COc1ccc(C2=NN(c3nc4ccccc4s3)C(=O)/C2=C\N(C)C)cc1
  A = 105	B = -0.9	C = -8	D = i	E = 0.97	F = 4	G = 38
NC(=S)N1CCCc2ccccc21
  A = 105	B = x	C = x	D = i	E = 0.86	F = x	G = x
CN(/C=C/c1c([N+](=O)[O-])c(=O)n(C)c(=O)n1C)c1ccccc1
  A = 101	B = x	C = 6	D = i	E = 0.94	F = 7	G = 72
CCN(CC)S(=O)(=O)c1cc(C(=O)OCC(=O)NC(=O)c2cccn2C)ccc1C
  A = 111	B = -0.9	C = -1	D = x	E = x	F = -85	G = 97
O=C(CNS(=O)(=O)c1ccccc1)NCC(=O)OCc1ccccc1F
  A = 51	B = -2.6	C = -3	D = i	E = 1	F = 16	G = 72
O=C1C2C3C=CC(C3)C2C(=O)N1CCCCN1C(=O)C2C3C=CC(C3)C2C1=O (centres undefined)
  A = 105	B = -0.8	C = 2	D = i	E = 0.96	F = 59	G = 175
COC(=O)C1=C(C)OC(N)=C(C#N)C1c1ccco1 (centres undefined)
  A = 97	B = -1.2	C = -8	D = i	E = 0.96	F = -50	G = 77
CCOC(=O)c1cc2c(=O)n3cccc(C)c3nc2n(CC(C)C)c1=NC(=O)c1ccco1
  A = 98	B = x	C = x	D = i	E = 0.93	F = x	G = x
COC(=O)c1c(NC(=O)CSc2nnc(CNc3ccc(Cl)cc3)o2)sc(C)c1C
  A = 57	B = -3.6	C = 5	D = i	E = 0.92	F = 36	G = 104
CCCNC(=S)N(Cc1ccccc1)Cc1nc2ccccc2c(=O)[nH]1
  A = 101	B = -1.1	C = -2	D = x	E = x	F = -62	G = 74
Cc1ccc(SCC(=O)c2ccc(CC(=O)O)s2)cc1
  A = 105	B = x	C = x	D = i	E = 1	F = x	G = x
Cc1ccc2nc3c(cc(C(=O)NCCCn4ccnc4)n3C)c(=O)n2c1
  A = 102	B = -0.3	C = -6	D = i	E = 0.98	F = 45	G = 208
CC(=O)Nc1ccc(S(=O)(=O)N2c3ccccc3NC(=O)CC2C)c(Cl)c1 (centres undefined)
  A = 101	B = x	C = x	D = i	E = 0.9	F = x	G = x
CCOC(=O)C1=C(N)Oc2cc(O)ccc2C1c1cccc([N+](=O)[O-])c1 (centres undefined)
  A = 98	B = x	C = 6	D = i	E = 1.1	F = x	G = x
Cc1ccc(Oc2nc(-c3ccccn3)nc3ccccc23)cc1
  A = 98	B = x	C = x	D = i	E = 0.68	F = x	G = x
Cc1ccc(-c2nc(N)n(S(=O)(=O)c3ccc(C)cc3)n2)cc1
  A = 97	B = x	C = -5	D = i	E = 1	F = x	G = x
O=C(c1cccs1)c1cn(CC(=O)N2CCc3ccccc3C2)c2ccccc12
  A = 104	B = -1.9	C = 0	D = i	E = 0.9	F = -50	G = 126
CCc1cc(=O)oc2c(C)c(OS(C)(=O)=O)ccc12
  A = x	B = -3.5	C = -7	D = i	E = 0.88	F = x	G = x
COc1ccc(-n2c(SCC(=O)NCc3ccco3)nc3c([nH]c4ccccc43)c2=O)cc1
  A = 104	B = -1.9	C = -10	D = i	E = 0.72	F = x	G = x
CCOC(=O)NC(O)C(=O)c1cccs1 (centres undefined)
  A = 95	B = -0.2	C = -10	D = i	E = 1.1	F = x	G = x
Cc1cc(NC(=O)c2cc3cccc([N+](=O)[O-])c3[nH]2)ccc1F
  A = 103	B = x	C = x	D = i	E = 0.89	F = x	G = x
Cc1ccc(S(=O)(=O)N2CCOCC2)cc1NC(=O)COC(=O)c1n[nH]c(=O)c2ccccc12
  A = 110	B = x	C = -4	D = i	E = 1	F = x	G = x

High-throughput results from PubChem.
